Biofilm kill mix = mixture kills Candida albicans biofilm cells | C. albicans biofilm persisters + clotrimazole, fluorescence viability; primary screen in compound mixtures of four per well | inhibition, % at 7.6 µM | 120,000 compounds, 0.02% hits | AID 1242;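 active = inhibition above 30.3% in the primary screen of four-compound pools, then above 30% when the compound was retested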;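 also: compounds exposed to preformed 24 h biofilms for 48 h; the number belongs to the whole pool; some results filed as inactive read as strong as hits; inactives centre near 12; 0% = biofilm with clotrimazole alone and 100% = kill control; retested singly at about 60 µM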
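Assay system: C. albicans biofilms / Medium: RPMI/MOPS medium, pH 7.0 / Schedule: biofilm formation 24 h, compound exposure 48 h, 37 °C / Measured by: Alamar Blue fluorescence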
Starred values were filed as active, the others as inactive.

SMILES | Biofilm kill mix
S=C(Nc1ccccc1)Nc1cccc(Cl)c1Cl | 5
O=C(CSc1nnnn1C1CCCC1)Nc1ccccc1N1CCOCC1 | 10
CSCC[C@H](NC(=O)OC(C)(C)C)C(=O)N/N=C/c1ccc2nccnc2c1 | 12
COc1cc(C(NC=O)C(=O)Nc2c(C)cccc2C)ccc1O (stereo unspecified) | 5
Cc1ccc(NC(=S)N2CCCCCC2)cc1 | 0
O=C(COc1ccc(-n2cnnn2)cc1)NC1CCCCC1 | 8
CSc1nnc(C)c(/C=C/NOCc2ccc(Cl)cc2)n1 | -13
CSc1ccccc1NC(=O)CN(C)CC(=O)Nc1ccccc1F | 10
COc1ccc(Nc2ccc(N3C(=O)CCC3=O)cc2[N+](=O)[O-])cn1 | 8
COC(=O)c1c(C)oc(C)c1S(=O)(=O)N1CCOCC1 | 8
CCn1cc(CNC(=O)/C=C/c2cnn(C)c2)c(C)n1 | 21
CC(=O)Nc1ccc(NC(=O)C2CC(=O)Nc3nc4ccccc4n32)cc1 (stereo unspecified) | 24
O=[N+]([O-])c1cccc(OCc2cn3cccnc3n2)c1 | 1
CCOC(=O)C1(CCc2ccccc2)CCN(C(=O)C2=C(C)OCCO2)CC1 | 14
CC(C)Cc1cc(C(=O)N2CCC(N3CCC(C(=O)N4CCCC4)CC3)CC2)n[nH]1 | 11
Cc1ccc(C)c2[nH]c(=O)c(C(c3nnnn3C(C)(C)C)N3CC=C(c4ccc(F)cc4)CC3)cc12 (stereo unspecified) | 11
CC1(C)C(=O)Nc2ccccc2N1C(=O)CSc1nnc2c(Cl)cc(Cl)cn12 | 6
Cc1c(N2C(=O)C(=O)/C(=C(/O)c3ccccc3)C2c2ccc(F)cc2)c(=O)n(-c2ccccc2)n1C (stereo unspecified) | 24
Cc1cc[n+](CC(=O)Nc2nc3ccccc3s2)cc1 | 0
CCNS(=O)(=O)c1c(C)cc(C)c(N(C)S(=O)(=O)c2ccccc2)c1C | -1
Cc1ccnc(NC(=O)c2c(-c3ccccc3Cl)noc2C)c1 | 5
Cn1cc([N+](=O)[O-])c(C(=O)Nc2ccn(C34CC5CC(CC(C5)C3)C4)n2)n1 | -4
CC(C(=O)O)n1c(-c2ccn[nH]2)n[nH]c1=S (stereo unspecified) | 15
O=C(N=NC(=O)c1ccc2c(O)n(CC3CCCO3)c(O)c2c1)c1cccnc1 (stereo unspecified) | 12
COC(=O)Nc1csc2c1NC(=O)CCCC2 | 16
Cc1ccc(NC(=O)CC(C(=O)O)c2ccccc2)cc1 (stereo unspecified) | 4
COc1cc(OC)c(OC)cc1/C=N/NC(=O)c1cnccn1 | 24
CCOCCCNC(=O)/C(C#N)=C/c1ccc(Cl)c([N+](=O)[O-])c1 | 11
CC(C)CC(=O)Nc1ccccc1N1CCN(c2ccccc2)CC1 | 13
CN1CCC(NC(=O)Nc2cccc(C(F)(F)F)c2)CC1 | 2
CCOc1ccc(N2C(=O)CC(N(Cc3ccco3)C(=O)CCC(=O)O)C2=O)cc1 (stereo unspecified) | -5
CNC(=O)c1ccc(CNC(=O)OCc2ccccc2)cc1 | 17
COc1ccccc1Nc1ccncc1[N+](=O)[O-] | -5
O=[N+]([O-])c1ccc(-c2cn(-c3ccccc3)c(=S)[nH]2)cc1 | 12
CCc1c(C)[nH]n(-c2nc(-c3cccc([N+](=O)[O-])c3)cs2)c1=O | 17
O=C(N/N=C/c1ccc2c(c1)OCO2)C(=O)N1CCCC1 | 6
Cc1ccccc1OCCCC(=O)Nc1nncs1 | 0
O=C(Nc1ccccc1)OC1CC2CC1C1CCCC21 (stereo unspecified) | -11
O=C(Cc1ccccc1)Nc1ccccc1C(=O)Nc1ccccc1 | 9
CCC1CCCCN1CC(C)(C)NS(=O)(=O)c1ccccc1 (stereo unspecified) | 11
CC(=O)c1ccccc1NC(=O)COC(=O)/C=C/c1ccc(C)o1 | 0
CCn1cc(Cl)c(C(=O)N2N=C3/C(=C/c4cccs4)CCCC3C2c2cccs2)n1 (stereo unspecified) | 12
CCOc1ccc(NC(=O)c2cc(C)nc3ccccc23)cc1 | 0
O=C(CSc1ncnc2sccc12)Nc1ccccc1F | 16
CCN(CC)C(=O)c1sc(NC(=O)c2cccc([N+](=O)[O-])c2)c(C#N)c1C | 22
COc1ccc(-n2cnc3scc(-c4ccccc4)c3c2=O)cc1 | 11
O=C(NCc1cccs1)Nc1cc(Cl)ccc1Cl | 7
O=C(NNS(=O)(=O)c1ccc(Br)cc1)c1cccs1 | 22
CC(=O)c1c(N2CCN(c3ccc(F)cc3)CC2)nc(=S)n(Cc2ccccc2)c1C | 17
O=C(CNC(=O)C1COc2ccccc2O1)N/N=C\c1ccc(Cl)cc1 (stereo unspecified) | 13
CC(=O)C1=NN(c2ccccc2)C(c2ccc3c(c2)OCO3)N1c1ccc(N2CCOCC2)cc1 (stereo unspecified) | 11
CC(C(=O)Nc1ccccc1-c1ccccc1)N1CCN(S(=O)(=O)c2ccccc2)CC1 (stereo unspecified) | 30
Cc1ccc(N2C(=O)CC(NNc3nc4ccccc4s3)C2=O)cc1 (stereo unspecified) | 10
CCC(C)NS(=O)(=O)c1ccc(NS(=O)(=O)c2ccccc2[N+](=O)[O-])cc1 (stereo unspecified) | 10
Cc1cc(C)cc(NC(=S)N(C)C)c1 | 0
CN(C)C(=O)COC(=O)/C=C/c1cn(-c2ccccc2)nc1-c1cccs1 | 3
CC(C)CNC(=O)Cn1nc(C(F)(F)F)c2c1CCCC2 | 13
COc1cccc(NC(=O)CNC(=O)c2ccc(C)cc2)c1 | 24
COCc1cc(C)nc(SCC(=O)Oc2ccc(Cl)cc2)c1C#N | 18
O=c1c2ccccc2c(C=Nc2ccc(O)cc2)c(O)n1-c1nccs1 | 28
(list continues)
SMILES | Biofilm kill mix
COCCCNc1nc2nonc2nc1N1CCN(C2CCCC2)CC1 | 10
COc1cc2c(cc1OC)CN(C(=O)c1cccc(S(=O)(=O)N(C)C)c1)CC2 | 24
CN1CCN(c2nc3c(c(=O)[nH]c(=O)n3C)n2CCSc2nnnn2-c2ccccc2)CC1 | 26
O=C(CCCN1C(=O)c2cccnc2C1=O)Nc1ccccc1F | -2
O=C(/C=C/c1ccc(S(=O)(=O)NCc2ccco2)cc1)N1CCN(c2ccccc2)CC1 | 9
O=C(O)c1ccc(N/N=C/c2ccc3c(c2)OCO3)cc1 | -4
Cc1ccc(NC(=O)Cn2cnc3cc([N+](=O)[O-])ccc3c2=O)c(Cl)c1 | 20
CCOC(=O)N1CCC(N2CCCC(CO)(Cc3ccccc3C)C2)CC1 (stereo unspecified) | 3
CCOc1cc(CO)cc(Br)c1OCC(N)=O | 9
Cc1ncoc1C(=O)N1CCCC(C(=O)c2cccc(C(F)(F)F)c2)C1 (stereo unspecified) | 31
O=C(CN1CCCCCCC1)Nc1cc(Cl)cc(Cl)c1 | 10
O=S(=O)(NCCc1cn2ccccc2n1)c1ccc2c(c1)CCCC2 | 14

The final 6 compounds of the section above are carried over, then new ones follow:
SMILES | Biofilm kill mix
Cc1ccc(NC(=O)Cn2cnc3cc([N+](=O)[O-])ccc3c2=O)c(Cl)c1 | 20
CCOC(=O)N1CCC(N2CCCC(CO)(Cc3ccccc3C)C2)CC1 (stereo unspecified) | 3
CCOc1cc(CO)cc(Br)c1OCC(N)=O | 9
Cc1ncoc1C(=O)N1CCCC(C(=O)c2cccc(C(F)(F)F)c2)C1 (stereo unspecified) | 31
O=C(CN1CCCCCCC1)Nc1cc(Cl)cc(Cl)c1 | 10
O=S(=O)(NCCc1cn2ccccc2n1)c1ccc2c(c1)CCCC2 | 14
O=c1[nH]c(N/N=C\c2ccc3c(c2)OCO3)nc2ccccc12 | 0
O=C(Nc1nnc(-c2ccco2)o1)c1ccc([N+](=O)[O-])s1 | 19
Cc1[nH]c2ccccc2c1C(=O)C(=O)NCc1ccco1 | 0
CC(OC(=O)Cc1ccc(Cl)cc1)C(=O)NCCC1=CCCCC1 (stereo unspecified) | 0
COc1ccc(-n2nc(C(C)=O)c(=O)[nH]c2=O)cc1 | 10
Cc1cc(/C=C(\C#N)C(=O)NC2CCCCCC2)c(C)n1C | 22
C=CCN(CC=C)CCCOc1ccc(C)cc1OC | 3
CCC(C)Cn1c(O)cc2nn(-c3nc4ccccc4s3)c(=O)c-2c1C (stereo unspecified) | 26
O=C(Cc1cccs1)N/N=C\c1ccc([N+](=O)[O-])s1 | 13
O=C(NCC1(c2ccccc2)CCCC1)C1(c2ccccc2)CCCC1 | 18
C=CC[C@H]1Cc2c(cccc2[N+](=O)[O-])[C@H](CC=C)N1 | 19
CCn1cc(CNC(=O)c2c(-c3c(Cl)cccc3Cl)noc2C)c(C)n1 | 6

Quoted at random: seven compounds from above.
SMILES | Biofilm kill mix
O=c1[nH]c(N/N=C\c2ccc3c(c2)OCO3)nc2ccccc12 | 0
COc1ccc(-n2nc(C(C)=O)c(=O)[nH]c2=O)cc1 | 10
C=CCN(CC=C)CCCOc1ccc(C)cc1OC | 3
O=C(Cc1cccs1)N/N=C\c1ccc([N+](=O)[O-])s1 | 13
CCC(C)Cn1c(O)cc2nn(-c3nc4ccccc4s3)c(=O)c-2c1C (stereo unspecified) | 26
CC(OC(=O)Cc1ccc(Cl)cc1)C(=O)NCCC1=CCCCC1 (stereo unspecified) | 0
C=CC[C@H]1Cc2c(cccc2[N+](=O)[O-])[C@H](CC=C)N1 | 19

Continuation:
SMILES | Biofilm kill mix
Cn1c(=O)c(=O)n(C)c2cc(S(=O)(=O)NCCOc3ccccc3Cl)ccc21 | 35
O=S1(=O)CCN2C=C(Cl)C=C(Cl)C2=N1 | 3
CN(C)c1cccc(C(=O)N/N=C/c2ccsc2)c1 | 9
CN(C)S(=O)(=O)N1CCC(CO)(CCc2ccccc2)CC1 | 2
O=C(O)CCCCC1CCSS1 (stereo unspecified) | 4
CSC1=NCCN1S(=O)(=O)c1ccccc1 | 7
CC(CSc1nnnn1-c1ccccc1)Cn1c(N2CCCC2)nc2c1c(=O)[nH]c(=O)n2C (stereo unspecified) | 14
Cc1ccc(/C=N/NC(=O)c2ccccn2)s1 | 0
S=c1[nH]nc(-c2ccc(Cl)cc2)n1Cc1ccccc1 | -5
Cn1c(SCC(=O)Nc2cc(C(C)(C)C)nn2-c2ccccc2)nc2ccccc21 | 18
Cc1ccc(-c2cn(-c3ccccc3)c(SCC(N)=O)n2)cc1C | 10
O=C(O)C1CSC(c2ccc3c(c2)OCO3)N1 (stereo unspecified) | 19
CCC(=O)N1CCN(c2ccc(NC(=S)NC(=O)COc3ccccc3)cc2)CC1 | 11
CC1CCC(C(C)C)C(OCC(O)C[N+]2(C)CCCCC2)C1 (stereo unspecified) | 29
Cc1[nH]c2ccccc2c1C(=O)CSc1n[nH]c(N)n1 | 26
CN(C(=O)c1cc2c(s1)-c1ccccc1S(=O)(=O)C2)c1ccccc1 | 18
OCCNc1nc(Nc2ccccc2)nc2ccccc12 | 11
COc1cccc(-c2nnc(NC(=O)c3ccccc3Br)o2)c1 | 4
CCOC(=O)CSc1ccc(S(=O)(=O)N2CCCC2)cc1[N+](=O)[O-] | 11
C#CCOCCOCCOCCNc1nc(N2CCN(C(=O)[C@H](Cc3ccc(O)cc3)n3cc([C@@H](N)C(C)CC)nn3)CC2)nc(N2CCN(C(=O)[C@H](CCCCN)n3cc([C@@H](N)CC(C)C)nn3)CC2)n1 (stereo partly specified) | 10
Nc1nc(SCC(=O)NCCOCCO)nc2sc3c(c12)CCCC3 | 25
CCN(CC)c1ccc(S(=O)(=O)Nc2cc(Cl)ccc2Cl)cc1NC(=S)NC(=O)C1CCCC1 | 6
CC(C)c1ccc(COc2ccc(C(=O)N3CCOCC3)cc2)cc1 | 17
O=c1c2ccccc2c(/C=N/c2nnc(Cc3ccccc3)s2)c(O)n1-c1ccc(Cl)cn1 | 19

Three entries from above, with tabs:
Structure	Biofilm kill mix
Cc1ccnc(NC(=O)c2c(-c3ccccc3Cl)noc2C)c1	5
Cn1cc([N+](=O)[O-])c(C(=O)Nc2ccn(C34CC5CC(CC(C5)C3)C4)n2)n1	-4
CC(C(=O)O)n1c(-c2ccn[nH]2)n[nH]c1=S (stereo unspecified)	15

Next part
SMILES | Biofilm kill mix
COCC(C)N=C1NN=C(c2c[nH]c3ccccc23)CS1 (stereo unspecified) | 11
CCOC(=O)c1c(NC(=O)CCN2C(=O)c3cccc([N+](=O)[O-])c3C2=O)sc(C(=O)OC(C)C)c1C | 14
CCN(CC)c1ccc2cc(S(=O)(=O)c3ccc(C)cc3)c(=O)oc2c1 | 8
COc1ccc(C2/C=C\CN(C(=O)NC(C)C)CC(=O)N2Cc2ccc(F)cc2)cc1 (stereo unspecified) | 14
COc1cccc(CNC(=O)CCC2CCCN(Cc3ccc4c(c3)CCO4)C2)c1 (stereo unspecified) | 28
COC(=O)c1ccc(NC2c3ncccc3C(=O)N2Cc2cccs2)cc1 (stereo unspecified) | 13
CCN(CC)c1ccc(C(=O)OCc2c(C)noc2C)cc1 | 7
O=C(CCCN1C(=O)c2cccc3cccc(c23)C1=O)N1CCN(c2ccccc2O)CC1 | 9
COc1cccc(CNc2ncn[nH]2)c1OCc1ccccc1F | 15
CCOC(=O)c1[nH]ncc1CN1CCCC(C(=O)c2ccc(OC)cc2C)C1 (stereo unspecified) | 15
O=c1ccc2ccc(Oc3ccc([N+](=O)[O-])cc3[N+](=O)[O-])cc2o1 | -10
C=CCn1c(SC)nnc1-c1cccc([N+](=O)[O-])c1 | 22
COc1ccc(/C(C)=N/N=C2/NC(=O)CC(C(=O)O)S2)cc1 (stereo unspecified) | 17
O=C(OCC(=O)N1CCCCC1)c1ccccc1SCC(=O)N1CCCCC1 | 17
O=c1[nH]c(CSc2nnc(Cc3ccccc3)o2)nc2ccccc12 | 5
CCC(CC)c1ncc[nH]1 | 22
Cc1nnc(SCC(=O)N(C)C2CCCCC2)s1 | 19
Cc1c(-c2ccccc2)n[nH]c1C(=O)N=Nc1c(O)[nH]c2ccccc12 | 6

Compound activity (PubChem)

These rows are one share of the data (hit frequency here may not be typical).
